# From PubChem
# GIV Gai3 FP = GIV-Galpha-i interaction inhibition | Galpha-i3/FITC-GIV peptide fluorescence polarization, 90 min; stronger effect = lower value; scaled: aluminum fluoride 0%, vehicle 100% | P08753 | percent of control (FP), % (concentration not given with the values) | AID 1224905 | actives 0.42% (n = 210,000);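 active means replicate mean at 85% of control or lower, very high polarization wells dropped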;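 further: wells of about 15 µL received 100 nL stock; the first replicate is given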
# Target sequence (P08753 whole entry, looked up): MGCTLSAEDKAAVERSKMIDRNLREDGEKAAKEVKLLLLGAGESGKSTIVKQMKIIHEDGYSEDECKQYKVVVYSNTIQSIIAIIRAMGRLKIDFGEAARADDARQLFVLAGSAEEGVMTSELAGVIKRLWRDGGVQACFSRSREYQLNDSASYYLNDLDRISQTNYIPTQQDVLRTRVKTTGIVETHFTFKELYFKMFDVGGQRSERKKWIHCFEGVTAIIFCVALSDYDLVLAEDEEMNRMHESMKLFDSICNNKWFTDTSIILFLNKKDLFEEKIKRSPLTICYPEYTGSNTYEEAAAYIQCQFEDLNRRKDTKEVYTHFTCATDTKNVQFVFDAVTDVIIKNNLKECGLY
# Active calls of the source: *. Not all compounds are listed. The share of hits here may be higher or lower than overall.
SMILES,GIV Gai3 FP
O=C(c1ccc2c(c1)N(C(=O)C1CC1)CC2)N1CCCC1,98
CCCOCC1CC2(CC(C)(c3csc(N)n3)OC2=O)C(=O)O1 (stereo not drawn),103
COc1cccc(-c2nc(C=Nc3ccc(C(=O)N(C)c4ccccc4)cc3)c(O)o2)c1,106
CCOC(=O)N1CC(=O)NC2C=CC(Br)=CC2=C1c1ccccc1Cl (stereo not drawn),110
O=C(NCCC1=CCCCC1)c1ccccc1NC(=O)c1nsc2ccccc12,110
CCOC(=O)C1=C(O)/C(=C/c2ccc(OC)c(OC)c2)SC1=Nc1ccccc1,117
CCOc1ccc(CNS(=O)(=O)c2cc(-c3nc(C)cs3)sc2C)cc1,128
COC(=O)C1=CN(Cc2ccc(F)cc2)C=C(C(=O)OC)C1c1cccc(OCc2ccccc2)c1,108
O=S(=O)(c1ccc(-c2cnc(C3CCC3)o2)s1)N1CCCc2ccccc21,106
O=S(=O)(NCc1ccccc1Cl)c1cccc2nonc12,111
COC(=O)c1ccccc1NC(=O)c1ccc(=O)n(Cc2ccc(F)cc2)c1,106
CC12c3ccccc3C(c3ccccc31)C1C(=O)N(Cc3ccc(F)cc3)C(=O)C12 (stereo not drawn),115
c1cc(N2CCCCC2)ncc1-c1noc(CN2CCSCC2)n1,99
Cc1nccn1Cc1nc(C2CCCCC2)no1,104
OCCCNc1nc(Nc2ccc3c(c2)OCO3)c2cnn(-c3ccccc3)c2n1,101
Nc1nc(COc2ccc(F)cc2Cl)nc(N2CCOCC2)n1,104
CCOC(=O)C[N+](CC)(CC)CCOc1ccc2c(c1)C(=O)c1cc(OCC[N+](CC)(CC)CC(=O)OCC)ccc1-2,113
CCc1onc(C)c1C1CCCN1S(=O)(=O)c1ccc2c(c1)OCCN2C(C)=O (stereo not drawn),99
Cc1ccc(C2CC(C(F)(F)F)n3ncc(C(=O)Nc4ccc(Cl)cc4)c3N2)cc1 (stereo not drawn),123
CC(C)c1cc(C2CCCN2C(=O)Nc2ccc(Br)cc2)on1 (stereo not drawn),103
CC(C)CCOCC1CC2(CC(C)(c3csc(Nc4ccccc4)n3)OC2=O)C(=O)O1 (stereo not drawn),106
Cc1ccc(/C(O)=C2\C(=O)C(=O)N(c3nncs3)C2c2cccc(Cl)c2)cc1 (stereo not drawn),108
COC(=O)c1ccccc1NC(=O)CSc1nc2sc(C)c(C)c2c(=O)n1-c1ccccc1,109
Cc1ccc2c(c1)-c1c(ssc1=S)C(C)(C)N2C(=O)CC(C)C,106
CCCCNC(=O)C1CCN(c2ncc(-c3cccc(C)c3)cn2)CC1,99

# Five compounds already listed, arranged by the value under GIV Gai3 FP, largest number first.
SMILES,GIV Gai3 FP
CCOc1ccc(CNS(=O)(=O)c2cc(-c3nc(C)cs3)sc2C)cc1,128
CCOC(=O)N1CC(=O)NC2C=CC(Br)=CC2=C1c1ccccc1Cl (stereo not drawn),110
COC(=O)C1=CN(Cc2ccc(F)cc2)C=C(C(=O)OC)C1c1cccc(OCc2ccccc2)c1,108
COc1cccc(-c2nc(C=Nc3ccc(C(=O)N(C)c4ccccc4)cc3)c(O)o2)c1,106
Cc1nccn1Cc1nc(C2CCCCC2)no1,104

# Back to the main list, starting three compounds before the break.
SMILES,GIV Gai3 FP
COC(=O)c1ccccc1NC(=O)CSc1nc2sc(C)c(C)c2c(=O)n1-c1ccccc1,109
Cc1ccc2c(c1)-c1c(ssc1=S)C(C)(C)N2C(=O)CC(C)C,106
CCCCNC(=O)C1CCN(c2ncc(-c3cccc(C)c3)cn2)CC1,99
C=CCn1c(=S)[nH]c2scc(-c3ccc(Cc4ccccc4)cc3)c2c1=O,102
CCCn1c(=O)c2nscc2n(CC(=O)NC(C)C)c1=O,103
CCOc1ccc(-c2noc(CSc3nc4cc5c(cc4c(=O)n3C)OCO5)n2)cc1,105
CCCCCOc1ccc(/C=C2\c3cc([N+](=O)[O-])ccc3-c3c2cc([N+](=O)[O-])cc3[N+](=O)[O-])cc1,108
N#CC1=CN(c2ccc(Br)cc2F)c2cc(F)ccc2S1(=O)=O,101
Cc1cc(C)cc(N2C(=O)/C(=C/C=C\c3ccccc3)S(=O)(=O)C2c2cccc([N+](=O)[O-])c2)c1 (stereo not drawn),110
Cc1cc(C)n2ncc(-c3ccc(C)c(S(=O)(=O)NCCCc4ccccc4)c3)c2n1,100
CCOC(=O)c1sc(NC(=O)Cn2nc(C(F)(F)F)c(Br)c2C)c(C(=O)OCC)c1C,110
CCOc1cc(C2C(C#N)=C(N)Oc3n[nH]c(C)c32)ccc1OCc1ccc(C(=O)OC)o1 (stereo not drawn),110
CCC(C)NC(=O)c1cc(NS(=O)(=O)c2ccc(Cl)cc2)cnc1N1CCNCC1 (stereo not drawn),101
Cc1cc2c(cc1S(=O)(=O)N(C)CC(=O)NCCC(C)C)OC(C)C(=O)N2 (stereo not drawn),104
N#CC(C(=O)Nc1ccc(Oc2ccccc2)cc1)=C(SCc1ccc(Cl)cc1)SCc1ccc(Cl)cc1,100
CCCc1[nH]nc2c1C(c1ccc(OC)cc1CSc1ccccn1)C(C#N)=C(N)O2 (stereo not drawn),101
Cc1cc(-c2ccc(C)o2)c(C#N)c(SCC(=O)c2ccc(Br)cc2)n1,128
O=C(CN1C(=O)c2ccccc2C1=O)OCCCN=C1NS(=O)(=O)c2ccccc21,112
COC(=O)c1ccc(/C=C2/SC(=O)N(CNc3ccc(OC)cc3OC)C2=O)cc1,103
COc1ccc(-c2cc(C(=O)N3CCCC3c3c(C)noc3C)no2)cc1OC (stereo not drawn),101
Cc1ccc(S(=O)(=O)NCCc2nc(-c3ccccc3)n[nH]2)cc1,106
CC(NC(=O)CSc1nnc(SCC(=O)NC(C)c2ccccc2)s1)c1ccccc1 (stereo not drawn),99
Cc1sc(-c2nc(C(C)C)cs2)cc1S(=O)(=O)N1CCC(C)CC1,101
Cc1ccc(-n2nc(C)c3c(=O)n(CC(=O)NCc4ccccc4Cl)ccc32)cc1,101
Cc1[nH]n(-c2ccc(Cl)cc2)c(=O)c1C=Nc1ccc(S(=O)(=O)N2CCCCC2)cc1,109
O=C(Cn1nc2c3scc(-c4ccc(F)cc4)c3ncn2c1=O)NCCc1ccc(Cl)cc1,100
CC(C)(C)c1csc(-c2csc(S(=O)(=O)NCc3cc(F)cc(F)c3)c2)n1,109
O=C(c1ccncc1)N1N=C(C(F)(F)F)CC1(O)c1ccc(F)cc1 (stereo not drawn),100

# The closing 2 records of the section above are carried over, then new ones follow.
SMILES,GIV Gai3 FP
CC(C)(C)c1csc(-c2csc(S(=O)(=O)NCc3cc(F)cc(F)c3)c2)n1,109
O=C(c1ccncc1)N1N=C(C(F)(F)F)CC1(O)c1ccc(F)cc1 (stereo not drawn),100
COc1cc(OC)c(NS(=O)(=O)c2ccc3c(c2)-c2oncc2CO3)cc1Cl,106
CCOC(=O)CSc1nc2c(sc(=S)n2-c2ccc(OCC)cc2)c2nc3ccccc3n12,103
O=C(CSc1nc2ccccc2c(=O)n1CC1COc2ccccc2O1)NCCc1ccccc1 (stereo not drawn),107
C=CCn1c(=O)/c(=C2/Sc3ccccc3N2CC)s/c1=C1\SC(=S)N(C)C1=O,331
Cc1nn(C)c2ncc(C(=O)NCc3ccc4c(c3)OCO4)c(NCc3ccccc3)c12,104
CCOC(=O)c1c(NC(=O)C(C)Sc2nnc(CNC(=O)c3ccco3)n2-c2ccc(F)cc2)sc2c1CCC2 (stereo not drawn),112
CCCN1CCN(C(=O)c2cnc3c(C)cccn3c2=O)CC1,103
O=C(NN1S(=O)(=O)c2ccccc2S1(=O)=O)c1cccc(Br)c1,118
O=C(Cn1c(=O)c2cccnc2n(-c2ccccc2)c1=O)Nc1ccc(Br)cc1,105
O=C(CSC1=NC(=O)C(Cc2ccccc2)C(=O)N1)Nc1ncccn1 (stereo not drawn),100
Cc1nn(-c2ccc3nnc(C)n3n2)c2c1C(c1cccc(OCc3ccccc3Cl)c1)CC(=O)N2 (stereo not drawn),129
Cc1ccc(C)c(CN2CCCC2c2cc(C)on2)c1 (stereo not drawn),104
Cc1cc(-c2c(C)sc(C)c2S(=O)(=O)Nc2ccc(C)c(Cl)c2)n[nH]1,96
CC1(C)OC2OC(C(=O)NNC(=O)CCCOc3ccc(Cl)cc3Cl)C3OC(C)(C)OC3C2O1 (stereo not drawn),100
CC1CCCCN1S(=O)(=O)c1ccc2c(c1)C(=O)Nc1ccccc1O2 (stereo not drawn),111
CC1(C)CC(=O)C2=C(C1)N(c1ccc(Br)cc1F)C(N)=C(C#N)C2c1ccsc1 (stereo not drawn),107
CCCc1cc(C2CCCN2Cc2cc(OC)cc(OC)c2)no1 (stereo not drawn),97
Cc1ccc(S(=O)(=O)Nc2cc(C)c3c(c2)-c2ccccc2S(=O)(=O)N3)cc1,104
CC(NC(=O)c1ccccc1)c1nc(-c2ccc(-c3csc(C4CC4)n3)cc2)no1 (stereo not drawn),99
Fc1ccc(Cl)cc1-c1nc(-c2ccn3cnnc3c2)no1,106
CC1(C)Cc2c(c(N3CCOCC3)nc3sc4c(NCc5ccccc5)nnnc4c23)CO1,111
Cc1cc2c(cc1S(=O)(=O)N(C)CC(=O)N1CCc3ccccc31)OC(C)C(=O)N2 (stereo not drawn),110
Cc1csc(-c2cc(S(=O)(=O)NCC(C)c3ccccc3)c(C)s2)n1 (stereo not drawn),99
O=C(NC1CCCCC1)c1ccccc1NC(=O)c1nsc2ccccc12,108
CCOC(=O)c1c(NC(=O)CSc2nnc(CNC(=O)Cc3ccc(OC)cc3)n2C)sc2c1CCC2,109
# Next section.
SMILES,GIV Gai3 FP
CCNc1cc(C)nc(N2CCN(C(=O)CC)CC2)n1,104
CCOC(=O)c1c(C)oc2ccc(N(C(=O)c3ccc([N+](=O)[O-])cc3)S(=O)(=O)c3ccc(Br)cc3)cc12,106
Cc1c2c(nn1-c1ccc(SCc3ccccc3F)nn1)CCC2,102
N#Cc1c(NC(=O)CO/N=C/c2ccccc2)oc(-c2ccccc2)c1-c1ccccc1,103
Cc1nc(-c2ccc(C)c(-n3cc(C(=O)N4CCc5ccccc54)c(C)n3)c2)no1,93
O=C(CSc1nc2c(sc3ccccc32)c(=O)n1Cc1cccnc1)Nc1ccc(O)c(O)c1,103
COc1ccc2oc(-c3noc(-c4cnccn4)n3)c(C)c2c1,102
Cc1csc(-c2cc(S(=O)(=O)NCCN3CCCC3)cn2CC(=O)N2CCCCC2)n1,105
COc1ccc(S(=O)(=O)N2CCC(c3noc(-c4ccccc4)n3)CC2)cc1,102
Cn1nc(C(=O)N2CCCC(C(=O)NC3CC3)C2)c2c1CCN(C(=O)CC1CCCC1)C2 (stereo not drawn),104
O=C(NCc1ccccc1)C1CCCN(c2nc3ccc(Br)cc3[nH]2)C1 (stereo not drawn),99
O=C(Cn1c(N2CCCCC2)nc2ccsc2c1=O)NC1CC1,101
CCCCC1CCC(c2cnc(-c3ccc(OC(F)F)cc3)nc2)CC1 (stereo not drawn),101
Cc1cc(Cl)ccc1S(=O)(=O)Nc1cc2c(cc1N1CCOCC1)n(C)c(=O)n2C,100
FC(F)(F)c1cccc(-n2cc(-c3ccccc3)c3c(NCc4cccnc4)ncnc32)c1,106
Cc1c(N=Cc2ccc(N(C)C)cc2)c(=O)n(-c2ccccc2)n1C,114
CC(C)CNC(=O)N1CCCC(C)(C(=O)NCc2ccc(F)cc2)C1 (stereo not drawn),104
CCN(CC)c1cc(CNC(=O)Nc2ccc3c(c2)OCO3)ccn1,108
O=S(=O)(c1ccc(-c2ccno2)s1)N1CCC2(CC1)OCCO2,98
COc1ccc(NC(=O)C2=C(C)NC(=O)NC2c2cccc(Br)c2)cc1 (stereo not drawn),98
NC(=O)C1CCN(C(=O)c2ccc3c(=O)n(Cc4ccco4)c(SCC(=O)c4ccccc4)nc3c2)CC1,110
CCN1/C(=C2/SC(=S)NC2=O)Sc2ccc(OC)cc21,112
Cc1cc(N2CCCC2)n2nc(CN3CCN(c4ccc(F)cc4)CC3)nc2n1,97
CC1=C(C(=O)OCCOC(C)C)C(c2cc3c(cc2Br)OCO3)NC(=O)N1 (stereo not drawn),101
O=c1ccn(-c2ccccc2)nc1-c1nc(-c2ccc3c(c2)OCO3)no1,96

# Arranged by count of non-hydrogen atoms (low to high): 7 of the compounds above
SMILES,GIV Gai3 FP
CCNc1cc(C)nc(N2CCN(C(=O)CC)CC2)n1,104
CCOc1ccc(CNS(=O)(=O)c2cc(-c3nc(C)cs3)sc2C)cc1,128
O=C(NC1CCCCC1)c1ccccc1NC(=O)c1nsc2ccccc12,108
Cc1cc(N2CCCC2)n2nc(CN3CCN(c4ccc(F)cc4)CC3)nc2n1,97
Cc1[nH]n(-c2ccc(Cl)cc2)c(=O)c1C=Nc1ccc(S(=O)(=O)N2CCCCC2)cc1,109
Cn1nc(C(=O)N2CCCC(C(=O)NC3CC3)C2)c2c1CCN(C(=O)CC1CCCC1)C2 (stereo not drawn),104
CCCCCOc1ccc(/C=C2\c3cc([N+](=O)[O-])ccc3-c3c2cc([N+](=O)[O-])cc3[N+](=O)[O-])cc1,108

# The results go on.
SMILES,GIV Gai3 FP
N#CC(C#N)=C1c2cc([N+](=O)[O-])ccc2-c2c1cccc2[N+](=O)[O-],106
O=C1/C(=C/c2ccc(Cl)cc2)C=C(c2ccccc2)N1c1cccc(Cl)c1Cl,114
O=C(NC1CCN(Cc2ccccc2)CC1)C1CCN(c2ncc(-c3ccccc3)cn2)CC1,105
CCOc1ccc2c(c1)-c1c(ssc1=S)C(C)(C)N2C(=O)c1cccc(OC)c1,107
CCC1CCCCN1C(=O)c1sc2ncn(CCOC)c(=O)c2c1C (stereo not drawn),122
O=[N+]([O-])c1cccc(C2=Nc3ccccc3C(c3ccccc3)(c3ccccc3)O2)c1,99
O=C1COc2ccccc2N1Cc1nc(-c2ccc3c(c2)ncn3C2CCCC2)no1,99
C=CCn1c(SCC(=O)Nc2ccc(OCC)cc2)nc2sc(CC)cc2c1=O,98
CCOC(=O)/C=C(\C)N1N=C(c2cccc([N+](=O)[O-])c2)CC1c1ccc(OC)cc1 (stereo not drawn),102
CCc1nc(CN2C(=O)COc3ccc(S(=O)(=O)NC(C)CC)cc32)no1 (stereo not drawn),106
O=C(C1CCN(c2cnc(N3CCSCC3)nc2)CC1)N1CCC2(CC1)OCCO2,99
CN1CCCn2nc(C3CCN(C(=O)CC(C)(C)C)CC3)cc2C1=O,103
O=C1C(=O)N(CO)C(c2ccc(Br)cc2)/C1=C(\O)c1ccccc1 (stereo not drawn),102
